Pf growth 96h: P. falciparum growth inhibition at 96 hours | P. falciparum luciferase reporter growth, 96 h | Potency, µM (highest dose often 28.7 µM), for the others: top-dose activity change, negative = inhibition, most hits filed as inhibitors | hit rate 6.9% among 320,000
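P. falciparum expressing integrated firefly luciferase grown in erythrocytes (2% hematocrit, 0.05% parasitemia final) with compounds for 96 hours at 37 C, 5% CO2. Growth inhibition read as loss of luminescence after adding luciferase detection reagent.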
AmpC no deterg: blocks E. coli AmpC beta-lactamase in detergent-free assay. hit rate 0.52% among 330,000. AmpC nitrocefin hydrolysis, absorbance 480 nm, 0.0001% Triton. P00811. AID 485341. Potency, µM (top dose mostly 57.1 µM), without a hit: at the top dose activity change, negative = inhibition, usual class: inhibitors;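 further: plate controls were no compound for no effect and no enzyme for full effect; nearly all actives have a fitted effect of over 20% in size; some results filed as inactive show a strong effect at the top dose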
Target sequence (P00811 whole entry, looked up): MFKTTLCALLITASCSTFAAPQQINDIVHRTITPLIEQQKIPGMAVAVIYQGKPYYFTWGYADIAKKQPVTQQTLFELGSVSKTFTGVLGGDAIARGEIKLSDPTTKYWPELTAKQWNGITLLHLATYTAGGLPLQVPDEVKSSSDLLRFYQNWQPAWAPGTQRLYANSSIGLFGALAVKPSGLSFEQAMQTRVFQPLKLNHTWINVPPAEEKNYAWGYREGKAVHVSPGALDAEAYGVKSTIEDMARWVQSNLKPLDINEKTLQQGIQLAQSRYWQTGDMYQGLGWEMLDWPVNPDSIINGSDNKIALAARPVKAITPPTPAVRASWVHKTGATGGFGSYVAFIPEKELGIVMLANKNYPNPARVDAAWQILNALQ
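20 mM phosphate pH 7.0 + 0.01% (detergent screen) or 0.0001% Triton X-100; 5.3 nM AmpC reagent; cpd preinc 15 min RT; nitrocefin (800 uM stock) to start; A480 q20 s × 4 min; Activity was normalised to no-enzyme and no-compound control wells.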
TbPYK inhibitor: blocks Trypanosoma brucei pyruvate kinase. hit rate 0.12% among 410,000. AID 624173. Potency, µM (doses to about 76.8 µM), inactives show at the top dose activity, negative = inhibition, usual class: inhibitors. TbPYK enzyme, Kinase-Glo Plus ATP luminescence, 45 min; further: nearly all actives have a fitted effect of over 50% in size
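Readout: single end-point luminescence (Kinase-Glo Plus, 10 min). Reaction conditions were TbPYK/substrate plus 130 uM ADP, 45 min at RT, pH 7.2 TEA buffer. No-enzyme wells served as controls, and data were normalized before concentration-response fitting.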
Pf growth 48h: P. falciparum growth inhibition at 48 hours (one generation); P. falciparum luciferase growth in erythrocytes, 48 h; Potency, µM (doses to about 28.7 µM), inactives show at the top dose activity change, negative = inhibition, hits mostly inhibitors; hit rate 5.9% among 310,000; AID 504832
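Luminescence readout; reporter = integrated firefly luciferase in P. falciparum. RBC culture at 2% hematocrit, 0.1% parasitemia final, 37 C/5% CO2; decreased signal taken as growth inhibition.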
Starred values were filed as active, the others as inactive; ? = inconclusive; / = not tested or not shown; & = joins results of further samples; [ ] = another dose, or the depositor's remark. The call rests on the fitted dose curve; in most records, active means well fitted curve in the direction sought with a large enough effect; inconclusive means small, poorly fitted or top-dose-only effect, or another doubt; inactive means no such curve, though single readings can be large; an effect the other way counts as inactive or inconclusive. Unless noted, on the % scale 0 is the no-effect control and ±100 the full control effect; potency means the concentration at half of the fitted maximal effect. A portion of the library; count on the stated rates, not on these rows.

smiles	Pf growth 96h	AmpC no deterg	TbPYK inhibitor	Pf growth 48h
O=C(Nc1ccccc1)C(=O)Nc1ccccn1	117%[activator]	-3%	?	444%[activator]
Cc1nonc1C(=O)N/N=C/c1ccccc1	-7%	-6%	-29%	-3%
CN(C)c1ccc(/C=N/NC(=O)c2ccccc2)cc1	37%[activator]	-6%	-17%	60%[activator]
COCCc1ccc(OC[C@H](O)CNC(C)C)cc1	-17%	/	-10%	4%
C[C@]12CCC(=O)C=C1CC[C@@H]1[C@@H]2[C@@H](O)C[C@@]2(C)[C@H]1CC[C@]2(O)C(=O)CO	-10%	-40%&-9%	6%&-1%&8%	-3%
CC(=O)C1CCC2C3CCC4CC(=O)CCC4(C)C3C=CC12C (stereo not drawn)	/	/	5%	/
COc1ccc(NC(=O)Nc2ccccc2OC)cc1	/	-47%	-10%	133%[activator]
CC(N=C(NC#N)Nc1ccncc1)C(C)(C)C (stereo not drawn)	-21%&-14%	-18%	-3%&3%&2%	-2%&5%

Three structures from above, arranged by formula weight, rising.
smiles	Pf growth 96h	AmpC no deterg	TbPYK inhibitor	Pf growth 48h
CN(C)c1ccc(/C=N/NC(=O)c2ccccc2)cc1	37%[activator]	-6%	-17%	60%[activator]
COc1ccc(NC(=O)Nc2ccccc2OC)cc1	/	-47%	-10%	133%[activator]
C[C@]12CCC(=O)C=C1CC[C@@H]1[C@@H]2[C@@H](O)C[C@@]2(C)[C@H]1CC[C@]2(O)C(=O)CO	-10%	-40%&-9%	6%&-1%&8%	-3%

Four entries from above, set out differently:
Screens in order – Pf growth 96h	AmpC no deterg	TbPYK inhibitor	Pf growth 48h
O=C(Nc1ccccc1)C(=O)Nc1ccccn1
→ 117%[activator]	-3%	?	444%[activator]
Cc1nonc1C(=O)N/N=C/c1ccccc1
→ -7%	-6%	-29%	-3%
CN(C)c1ccc(/C=N/NC(=O)c2ccccc2)cc1
→ 37%[activator]	-6%	-17%	60%[activator]
COCCc1ccc(OC[C@H](O)CNC(C)C)cc1
→ -17%	/	-10%	4%
